From PubChem
Rango release inh: inhibition of RanGTP-driven Rango-importin beta dissociation | Potency, µM (doses to about 46.1 µM), without a hit: top-dose activity change, negative = inhibition | Biochemical FRET Rango-importin beta, RanGTP-induced dissociation | AID 540253 | O95149+P62826 | hit rate 0.071% among 340,000; active means falling FRET ratio curve, often poorly fitted, with flat reads before Ran was added; inconclusive means other falling curves, or compound fluorescence or quenching; inactive means flat or rising ratio curve;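 note: potency is the fitted concentration of half-maximal effect; % of control where 0% means no effect; nearly all actives have a fitted effect of over 45% in size; -100% = wells without RanGTP and RCC1; the record marks most hits as doubtful in a second field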
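FRET read at 45 min, room temperature: inhibitors block the CFP/YFP signal rise when RanGTP (0.6 uM Ran, 2 mM GTP, 0.2 uM RCC1) frees Rango (0.1 uM) from importin beta (0.25 uM). Pre-read after 5 min compound exposure flags interference.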
GLA inh pH 4.5: alpha-galactosidase A (human) inhibition, pH 4.5 | P06280 | purified enzyme, 4-MU-alpha-Gal fluorescence, pH 4.5 | activity change, negative = inhibition, % at 105 µM | 230,000 tested, under 10 active | AID 1467; inconclusive = small, poorly fitted or top-dose-only inhibition, or a rising curve; inactive = flat fitted curve, though single readings scatter; no compound was filed as active;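 note: 0% = full activity with enzyme and -100% = basal without enzyme; dose as in the result columns while the protocol names 77 µM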
miR-21 FLuc: raises the signal of a miR-21 reporter | AID 2288 | HeLa miR-21 FLuc reporter, luciferase, 48 h | 340,000 tested, under 10 active | Potency, µM (top dose mostly 38.3 µM), for inactives: top-dose reporter change, positive = more light; active = well fitted rising curve with a large enough effect; inconclusive = small, poorly fitted or top-dose-only effect; inactive = no such curve, though single readings can be large or run the other way;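 note: % of control where 0% means no effect; miR-21 action dims this reporter so a rising signal means less miR-21 action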
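HeLa cells stably expressing CMV-driven firefly luciferase with a downstream miR-21 binding sequence, endogenously expressing miR-21, were treated with titrations (up to about 40uM final) for 48 hours at 37 degree Celsius. Luciferase luminescence was read after lysis.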
Rango-impB inh: Rango-importin beta binding inhibition | Q14974 | Rango CFP/YFP FRET sensor + importin beta, 45 min | Potency, µM (highest dose often 92.2 µM), for inactives: at the top dose inhibition of complex formation | hit rate 0.031% among 340,000; active = rising FRET ratio curve, often small or poorly fitted; inconclusive = mostly compound fluorescence or quenching in the first reads; inactive = flat curves in all reads;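 note: potency is the fitted concentration of half-maximal effect; 0% = DMSO wells and 100% = buffer wells lacking importin beta; nearly all actives have a fitted effect of over 15% in size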
Target sequence (Q14974 whole entry, looked up): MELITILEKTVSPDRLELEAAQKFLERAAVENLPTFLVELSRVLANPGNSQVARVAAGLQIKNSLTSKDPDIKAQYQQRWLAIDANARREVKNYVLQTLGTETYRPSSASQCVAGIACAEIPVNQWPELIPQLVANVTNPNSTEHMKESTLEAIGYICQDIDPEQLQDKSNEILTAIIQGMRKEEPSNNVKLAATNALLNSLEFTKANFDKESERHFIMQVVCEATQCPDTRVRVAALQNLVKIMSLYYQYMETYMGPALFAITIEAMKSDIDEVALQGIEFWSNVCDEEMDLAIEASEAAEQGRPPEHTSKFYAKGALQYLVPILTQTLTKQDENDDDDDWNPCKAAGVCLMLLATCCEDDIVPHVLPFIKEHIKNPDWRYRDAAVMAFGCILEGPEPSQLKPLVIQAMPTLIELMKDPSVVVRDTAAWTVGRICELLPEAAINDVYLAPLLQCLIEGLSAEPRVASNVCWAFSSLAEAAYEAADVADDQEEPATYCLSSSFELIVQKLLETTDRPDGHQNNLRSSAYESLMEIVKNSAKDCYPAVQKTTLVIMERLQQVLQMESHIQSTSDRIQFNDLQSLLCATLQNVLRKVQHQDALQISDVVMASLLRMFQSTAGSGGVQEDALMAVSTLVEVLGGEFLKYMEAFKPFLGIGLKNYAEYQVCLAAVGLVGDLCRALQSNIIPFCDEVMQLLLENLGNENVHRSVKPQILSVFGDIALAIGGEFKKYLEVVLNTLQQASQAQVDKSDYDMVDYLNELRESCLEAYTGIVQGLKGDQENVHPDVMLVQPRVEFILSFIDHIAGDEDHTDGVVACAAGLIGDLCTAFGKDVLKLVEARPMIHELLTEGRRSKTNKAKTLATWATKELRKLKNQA
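FRET biosensor Rango (snurportin 1 IBB between N-terminal EYFP and C-terminal Cerulean), 50 nM in PBS/1 mM DTT/0.02% Tween-20/0.1% BSA, preincubated 5 min RT with compound; 0.125 microM importin beta added, 45 min RT, CFP/YFP FRET ratio read.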
The depositor's hits bear a star; ? = inconclusive; nt = not tested or not shown. A portion of the library; count on the stated rates, not on these rows.

SMILES	Rango release inh	GLA inh pH 4.5	miR-21 FLuc	Rango-impB inh
COc1ccc(/C=C/C(=O)c2cc(Br)ccc2OC(=O)c2ccco2)cc1OC	2.2%	1.6	20.7%	-0.6%
CC(C)(C)c1ccc(C(=O)N2CCCC2)s1	0.3%	4.3	-50.7%	-0.2%
Cc1occc1C(=O)N/N=C/c1c[nH]c2ccccc12	14.3%	-2.9	-45.5%	0.8%
CCc1ccc(OCC(O)CNC(C)(C)C)cc1 (stereo not given)	-18.0%	-3.7	-7.1%	8.1%
O=C(CSc1nnc(-c2ccncc2)o1)c1cccc([N+](=O)[O-])c1	-18.2%	7.9	-0.7%	-4.3%
O=C1[C@@H]2CSCN2C(=O)CN1CCc1cccc(F)c1	3.4%	8.1	-3.1%	1.1%
Cc1c(C(=O)NCc2ccccc2CN2CCCC2)oc2ccccc12	-4.4%	nt	nt	0.1%
O=C(CSc1nnc(-c2ccc(S(=O)(=O)N3CCCC3)cc2)o1)NCC1CCCO1 (stereo not given)	-8.2%	-6.8	-0.4%	5.2%
CCC(C)NC(=O)CSC1=Nc2ccccc2C2=NC(CCC(=O)NCc3ccco3)C(=O)N12 (stereo not given)	-1.6%	-4.5	-0.4%	0.1%
Cc1ccnc(NC(=O)CCNS(=O)(=O)c2ccc(C)c(C)c2)c1	-1.8%	nt	-17.0%	5.5%
Cc1c(NC(=O)CN2C(=O)NC(C)(c3ccc(Cl)cc3)C2=O)c(=O)n(-c2ccccc2)n1C (stereo not given)	-3.0%	nt	nt	1.6%
COc1cccc(N(C(=O)c2ccco2)c2nc(-c3sc(NC(=O)c4ccco4)nc3C)cs2)c1	-3.9%	-16.3	12.5%	?
Cc1ccc(S(=O)(=O)N2CCOCC2)cc1C(=O)N1CCCCCC1	-2.6%	nt	1.1%	-2.7%
COC(=O)c1cc(NC(=O)Nc2ccccc2OC)cc(C(=O)OC)c1	10.8%	4.0	13.0%	5.7%
Cc1ccccc1-c1cc(=O)c2ccccc2o1	-2.8%	nt	nt	0.4%
COCc1cc(CNC(=O)C2CCC(=O)N(Cc3cccc(OC)c3)C2)[nH]n1 (stereo not given)	-6.0%	nt	1.1%	-1.5%
O=C(O)c1cc(-c2ccc3c(c2)OCO3)nc2ccc(Br)cc12	-9.5%	-3.4	-33.0%	5.0%
CCC(Sc1ncnc2sc(C)c(C)c12)C(=O)OC (stereo not given)	-4.0%	-15.2	-0.2%	-0.1%
Fc1ccc(OCCCCCn2ccnc2)cc1	35.0%	nt	4.0%	0.8%
CCC(c1nnnn1C(C)(C)C)N(Cc1ccco1)Cc1cc2cccc(C)c2[nH]c1=O (stereo not given)	8.9%	0.5	-4.4%	-0.5%
Cc1c(C)c2ccc(OCC(=O)N3CC[C@@]4(O)CCCC[C@H]4C3)cc2oc1=O	-5.9%	nt	-5.9%	-0.4%
Cc1[nH]nc(SCC(=O)NC2CCCCC2)c1[N+](=O)[O-]	4.1%	5.8	-9.1%	-0.3%
O=C(c1n[nH]c2ccccc12)N1CCN(S(=O)(=O)c2ccccc2)CC1	-6.6%	nt	nt	4.9%
Clc1ccc2[nH]cc(-c3nnnn3-c3ccccc3)c2c1	7.5%	2.2	10.2%	0.2%
O=C(COC(=O)C(O)c1ccccc1)NC12CC3CC(CC(C3)C1)C2 (stereo not given)	-18.4%	3.5	-8.3%	-3.1%

Entries of single compounds as entered above. Order of values: Rango release inh | GLA inh pH 4.5 | miR-21 FLuc | Rango-impB inh
O=C(c1n[nH]c2ccccc12)N1CCN(S(=O)(=O)c2ccccc2)CC1 across the screens: -6.6% | nt | nt | 4.9%
O=C1[C@@H]2CSCN2C(=O)CN1CCc1cccc(F)c1 across the screens: 3.4% | 8.1 | -3.1% | 1.1%
Cc1ccnc(NC(=O)CCNS(=O)(=O)c2ccc(C)c(C)c2)c1 across the screens: -1.8% | nt | -17.0% | 5.5%

Only Rango-impB inh (6 entries from above):
Molecule	Rango-impB inh
COCc1cc(CNC(=O)C2CCC(=O)N(Cc3cccc(OC)c3)C2)[nH]n1 (stereo not given)	-1.5%
O=C(O)c1cc(-c2ccc3c(c2)OCO3)nc2ccc(Br)cc12	5.0%
CCC(Sc1ncnc2sc(C)c(C)c12)C(=O)OC (stereo not given)	-0.1%
Fc1ccc(OCCCCCn2ccnc2)cc1	0.8%
CCC(c1nnnn1C(C)(C)C)N(Cc1ccco1)Cc1cc2cccc(C)c2[nH]c1=O (stereo not given)	-0.5%
Cc1c(C)c2ccc(OCC(=O)N3CC[C@@]4(O)CCCC[C@H]4C3)cc2oc1=O	-0.4%

Further records:
SMILES	Rango release inh	GLA inh pH 4.5	miR-21 FLuc	Rango-impB inh
Cc1cc(C(=O)OCC(=O)NC2(C#N)CCCCC2)c(C)o1	-28.1%	nt	nt	0.4%
O=C1CN(C(=O)c2cc([N+](=O)[O-])ccc2Cl)C(c2ccccc2)c2cc(F)ccc2N1 (stereo not given)	2.9%	-7.8	-0.2%	-0.8%
O=C(O)c1c(NC(=O)N2CCCC2)sc2c1CCCC2	-4.7%	nt	1.9%	-1.4%
O=C1OCc2cc(NC(=O)C3COc4ccccc4O3)ccc21 (stereo not given)	?	-19.9	-20.1%	?
COC(=O)Nc1nncs1	14.9%	4.6	1.1%	0.5%
CC(=O)NCc1cccc(CNC(C)=O)n1	17.4%	2.9	-5.9%	-2.8%
CC(OC(=O)c1ccc2c(=O)n3c(nc2c1)CCC3)C(N)=O (stereo not given)	4.7%	-1.9	-1.2%	-1.6%
CNc1c(-n2cc(C(=O)OC)c(C(=O)OC)c2C(=O)OC)c(=O)n(C)c(=O)n1C	20.7%	nt	0.3%	1.7%
CCc1cccc(Oc2nn[nH]n2)c1	-15.8%	1.4	-6.8%	-2.2%
Cc1ccc(Sc2c(C(=O)Nc3ccc(F)cc3F)c(C(F)(F)F)nn2C)cc1	9.1%	-3.5	-0.8%	6.6%
Cc1ccc(OCCCC(=O)NCc2ccco2)c(C)c1	nt	-9.0	-1.7%	nt
Cc1ccc(S(=O)(=O)N(C)CC(=O)OCC(=O)c2c(N)n(C)c(=O)n(C)c2=O)cc1	15.3%	5.4	-1.1%	1.0%
COC(=O)c1cc(Sc2c(Cl)cccc2Cl)ccn1	-8.6%	4.2	-3.3%	8.4%
C=CC12C=CC=CN1C(C(=O)OC)=C(C(=O)OC)C(C(=O)OC)=C2C(=O)OC (stereo not given)	8.8%	-11.2	5.6%	7.2%
NS(=O)(=O)c1cccc(NC(=O)c2cccs2)c1	6.8%	-5.6	-3.4%	-1.4%
CCn1c(C2CC(=O)N(Cc3ccccc3)C2)nc2ccccc21 (stereo not given)	-8.0%	5.3	-3.5%	-0.1%
O=C(CN1CCOCC1)n1c2c(c3ccccc31)CCCC2	1.0%	4.6	2.9%	-0.7%
COCc1cc(C2C(C(=O)c3ccco3)=C(O)C(=O)N2CCOCCO)ccc1O (stereo not given)	1.0%	-12.7	1.6%	2.4%
Cc1cc(C)nc(NC(=O)CSc2ccccn2)n1	-12.8%	1.5	-2.0%	0.9%
O=C(N/N=C/c1c(Cl)cccc1Cl)c1n[nH]c2c1CCCC2	-7.7%	-1.7	-51.2%	4.8%
COc1ccc(CC(=O)O/N=C(\N)Cc2ccc([N+](=O)[O-])cc2)cc1	6.2%	-0.9	-4.6%	-2.3%
CCOc1ccc(NC2c3ccccc3C(=O)N2Cc2ccco2)cc1 (stereo not given)	12.7%	6.4	-1.5%	-3.8%
CN1C(=O)C(O)(CC(=O)/C=C/C=C/c2ccccc2)c2ccccc21 (stereo not given)	-17.9%	nt	-2.4%	-2.4%
CCCNC(=O)c1oc2ccc3c(c2c1C)C=CC(C)(C)O3	0.2%	nt	-59.2%	-2.6%
CCCCN(C(=O)c1ccc(Br)o1)C1CCS(=O)(=O)C1 (stereo not given)	-2.7%	nt	nt	0.3%
(further entries)
SMILES	Rango release inh	GLA inh pH 4.5	miR-21 FLuc	Rango-impB inh
O=C(CSc1ncc(-c2ccccc2)n1-c1ccccc1)NCc1ccco1	8.7%	6.0	-1.4%	-1.5%
Cc1c(NC(=O)OCc2ccccc2)c(=O)n(-c2ccccc2)n1C	-8.8%	-8.2	1.8%	3.2%
O=C(O)c1ccc(-c2cccc([N+](=O)[O-])c2)o1	9.6%	-0.6	-0.9%	4.6%
CCn1c2nc(SCCN3CCOCC3)nnc2c2cc(C)cc(C)c21	-9.9%	nt	8.3%	4.3%
CNC(=S)NCC(O)c1ccc([N+](=O)[O-])cc1 (stereo not given)	2.3%	9.1	2.1%	1.7%
O=C(NCC(O)CO)c1csc(Nc2cccc3ccccc23)n1 (stereo not given)	-7.9%	nt	7.3%	1.4%
O=C(NCC(O)c1ccc([N+](=O)[O-])cc1)c1cccc(S(=O)(=O)N2CCOCC2)c1 (stereo not given)	-5.7%	nt	0.7%	0.0%
COCCN(C(=O)COC(=O)CCOc1cccc(C)c1)c1c(N)n(Cc2ccccc2)c(=O)[nH]c1=O	10.5%	nt	nt	-2.7%
Cc1ccc(-n2cnc3c(=O)[nH]cnc32)cc1[N+](=O)[O-]	-17.8%	nt	nt	?
O=C(Nc1ncc(Cc2ccccc2)s1)c1cccs1	?	-1.1	2.2%	3.7%
Cc1onc(-c2c(Cl)cccc2Cl)c1C(=O)Nc1nccs1	0.8%	nt	16.1%	-0.5%
O=[N+]([O-])c1nn(-c2ccccc2)n(O)c1=NCCc1ccccc1	12.4%	-1.1	-42.7%	-1.4%
O=C(/C=C/c1ccc(Cl)c(Cl)c1)NC1=NCCS1	11.1%	7.7	-48.9%	-1.0%
CC1C(=O)C(C)C(c2ccccc2F)NC1c1ccccc1F (stereo not given)	-9.1%	nt	-2.9%	-0.9%
O=C(C1CCN(C2CC(=O)N(c3cccc(Cl)c3)C2=O)CC1)N1CCCCCC1 (stereo not given)	4.4%	-4.5	-5.2%	-0.4%
COc1ccc(C(=O)Nc2ccccc2-c2nnn(CC(=O)N3CCOCC3)n2)cc1	2.9%	6.3	-2.0%	1.2%
CC[C@@H]1CC=C[C@H]2[C@H]1C(=O)N(Cc1ccccc1)[C@H]2c1ccc(C(F)(F)F)cc1	9.6%	-7.1	13.2%	-1.4%
CC(C)CN1CN(Cc2ccco2)CNC1=S	7.1%	-1.4	1.0%	-2.6%
CSCCC(NS(=O)(=O)c1ccc(C)cc1)C(=O)NC1CCCCC1 (stereo not given)	6.2%	-8.6	-0.2%	2.8%
O=C(Nc1ccccc1)c1ccc2c(c1)OCO2	-11.4%	-6.9	-49.2%	0.2%
CCOC(=O)c1ccc(NC(=S)N2CCSC2c2ccc(OC)cc2)cc1 (stereo not given)	-20.3%	4.3	-12.1%	-2.4%
CCOc1ccc(N=c2scc(-c3ccc(OC)cc3)n2CCO)cc1	0.7%	-5.2	-0.5%	2.9%
CC(=O)Nc1ccc(NC(=O)CCOc2ccccc2C)cc1	-6.7%	nt	-5.4%	-0.7%
O=C(CN1CCN(Cc2ccccc2)CC1)N1N=CCC1c1ccccc1 (stereo not given)	2.0%	-5.9	-9.7%	0.3%
CC1=NOC(=O)/C1=C\c1ccc(-c2ccc(Br)cc2C(=O)O)o1	29.7%	-0.9	1.2%	?
(more compounds)
SMILES	Rango release inh	GLA inh pH 4.5	miR-21 FLuc	Rango-impB inh
COc1cc(NC(=O)c2cccnc2)ccc1-c1cc2ccccc2oc1=O	nt	-2.4	-0.9%	nt
CCCCn1c(N)c(N(CC(C)C)C(=O)CCCc2cccs2)c(=O)[nH]c1=O	3.7%	nt	-5.6%	-0.4%
O=[N+]([O-])c1ccc(N/N=C/c2cccnc2)cc1	?	nt	-17.3%	?
CCc1ccc(CNC(=O)CN2C(=O)COc3ccccc32)cc1	2.7%	-6.4	-7.0%	6.0%
O=C(CCC(=O)c1ccc(F)cc1)OCc1nnc(-c2ccc([N+](=O)[O-])cc2)o1	6.4%	nt	nt	-1.5%
CCCCCn1c(N)c(-c2nc3ccccc3s2)c2c([N+](=O)[O-])nn(C)c(=O)c21	-14.9%	2.5	-1.1%	-2.4%
Nc1nc(CSc2n[nH]c(-c3ccccc3)n2)nc(Nc2ccccc2)n1	-6.0%	-7.3	22.7%	-0.6%
O=C(Cn1cc([N+](=O)[O-])cn1)NCc1cc2ccccc2[nH]1	2.5%	-2.4	-9.1%	4.6%
CC(Nc1ccc(N2CCOCC2)cc1)C(=O)N1c2ccccc2CC1C (stereo not given)	1.2%	-0.1	7.3%	-1.7%
